GLA inh pH 4.5: qHTS Assay for Inhibitors of Human alpha-Galactosidase at pH 4.5 | Alpha-galactosidase A (Homo sapiens), P06280 | AID 1467, 2008 | purified enzyme, 4-MU-alpha-Gal fluorescence, pH 4.5 | 230,000 tested, under 10 active | activity change, negative = inhibition, % at 105 µM; inconclusive = small, poorly fitted or top-dose-only inhibition, or a rising curve; inactive = flat fitted curve, though single readings scatter; no compound was filed as active;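 note: 0% = full activity with enzyme and -100% = basal without enzyme; dose as in the result columns while the protocol names 77 µM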
Target sequence (P06280 whole entry, looked up): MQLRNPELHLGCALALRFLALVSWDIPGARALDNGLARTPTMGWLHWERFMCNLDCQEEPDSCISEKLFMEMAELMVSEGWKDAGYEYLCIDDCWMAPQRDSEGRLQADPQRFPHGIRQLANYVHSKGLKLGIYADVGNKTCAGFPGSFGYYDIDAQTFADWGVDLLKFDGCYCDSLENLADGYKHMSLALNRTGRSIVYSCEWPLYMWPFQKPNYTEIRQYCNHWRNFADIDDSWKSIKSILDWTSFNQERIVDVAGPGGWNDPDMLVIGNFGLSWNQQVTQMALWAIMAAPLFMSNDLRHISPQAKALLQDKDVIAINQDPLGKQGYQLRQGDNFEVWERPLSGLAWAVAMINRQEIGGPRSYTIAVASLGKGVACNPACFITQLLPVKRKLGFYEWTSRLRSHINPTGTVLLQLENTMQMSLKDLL
miR-21 FLuc: qHTS Assay for Modulators of miRNAs and/orActivators of miR-21 | AID 2288, 2010 | Potency, µM (doses to about 38.3 µM), without a hit: top-dose reporter change, positive = more light | HeLa miR-21 FLuc reporter, luciferase, 48 h | 340,000 tested, under 10 active; active = well fitted rising curve with a large enough effect; inconclusive = small, poorly fitted or top-dose-only effect; inactive = no such curve, though single readings can be large or run the other way;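 note: % of control where 0% means no effect; miR-21 action dims this reporter so a rising signal means less miR-21 action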
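HeLa cells endogenously expressing miR-21, stably carrying CMV-driven firefly luciferase with a downstream miR-21 binding site, 2000 cells/well. Titrations up to approximately 40 uM, 48 hours; luciferase luminescence read.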
Rango release inh: qHTS Assay for Inhibitors of RanGTP induced Rango (Ran-regulated importin-beta cargo) - Importin beta complex dissociation. Snurportin-1 (Homo sapiens) + GTP-binding nuclear protein Ran (Homo sapiens) + Importin …. Biochemical FRET Rango-importin beta, RanGTP-induced dissociation. Potency, µM (titrated, usually from 46.1 µM), inactives show at the top dose activity change, negative = inhibition. 0.071% of 340,000 active. AID 540253, 2011; active means falling FRET ratio curve, often poorly fitted, with flat reads before Ran was added; inconclusive means other falling curves, or compound fluorescence or quenching; inactive means flat or rising ratio curve;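 note: potency is the fitted concentration of half-maximal effect; % of control where 0% means no effect; nearly all actives have a fitted effect of over 45% in size; -100% = wells without RanGTP and RCC1; the record marks most hits as doubtful in a second field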
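Recombinant Rango FRET biosensor (EYFP–snurportin 1 IBB–cerulean CFP10) at 0.1 uM premixed with 0.25 uM importin beta in PBS, 1 mM DTT, 0.02% Tween-20, 0.1% BSA. Compound added 5 min; RanGTP-RCC1 (0.6 uM Ran, 2 mM GTP, 0.2 uM RCC1) then triggers release, read at 45 min.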
Rango-impB inh: qHTS Assay for Inhibitors of Rango (Ran-regulated importin-beta cargo) - Importin beta complex formation; Importin subunit beta-1 (Homo sapiens), Q14974; AID 540263, 2011; Potency, µM (titrated, usually from 92.2 µM), inactives show at the highest dose inhibition of complex formation; Rango CFP/YFP FRET sensor + importin beta, 45 min; 0.031% of 340,000 active; active = rising FRET ratio curve, often small or poorly fitted; inconclusive = mostly compound fluorescence or quenching in the first reads; inactive = flat curves in all reads;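 note: potency is the fitted concentration of half-maximal effect; 0% = DMSO wells and 100% = buffer wells lacking importin beta; nearly all actives have a fitted effect of over 15% in size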
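FRET biosensor (snurportin 1 IBB flanked by EYFP and cerulean), 50 nM, with compound 5 min, then 0.125 microM importin beta in PBS, 1 mM DTT, 0.02% Tween-20, 0.1% BSA. CFP/YFP ratio read after 45 min at room temperature; pre-read flags interference.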
The depositor's hits bear a star; ? = inconclusive; · = not tested or not shown. An excerpt, so the mix of outcomes need not match the whole.

cpd	GLA inh pH 4.5	Rango release inh	Rango-impB inh	miR-21 FLuc	Structure
1	5	7%	-0.5%	-2%	COc1ccccc1/C=C/C(=O)NCc1ccccn1
2	-5	-3%	2.1%	2%	CCN(CC)CCCNC(=O)Cn1ncc2c(=O)oc3ccc(C)cc3c21
3	7	?	-0.1%	-4%	COc1ccc(C(=O)NCC(=O)OCC(=O)c2ccc(Cl)cc2)cc1OC
4	·	-4%	-1.8%	·	COc1cc(NC(=O)C[n+]2ccc(C(=O)c3ccccc3)cc2)cc(OC)c1
5	8	-8%	1.4%	0%	COCC(=O)Nc1ccc(S(=O)(=O)Nc2cc(C)nc(C)n2)cc1
6	·	-9%	6.1%	0%	O=C(N/C(=C\c1ccco1)C(=O)N1CCOCC1)c1ccc([N+](=O)[O-])cc1
7	2	-6%	8.5%	-6%	CC(C)CC(=O)Nc1cc([N+](=O)[O-])ccc1Cl
8	-4	-2%	-7.1%	-4%	COc1ccc(C(NC(=O)/C=C\c2ccco2)c2ccc(OC)c(OC)c2)cc1 (stereo unspecified)
9	·	16%	2.0%	6%	CC12CC(NC(=O)N1c1cccc(C(=O)NCc3ccccn3)c1)c1ccccc1O2 (stereo unspecified)
10	-3	-14%	?	11%	CCCSc1cc(NCCOC(=O)CCC)c([N+](=O)[O-])c2nonc12
11	2	-3%	-0.9%	2%	Cc1nc2ccccc2c(=O)n1/N=C/c1cn[nH]c1-c1ccccc1
12	5	-8%	0.5%	-1%	CCOC(=O)N1CCN(C(=O)c2ccc3c(c2)sc2nc(-c4ccccc4)cn23)CC1
13	-6	7%	0.0%	-2%	CNC(=O)c1c(C)nn(-c2ccc(F)c(Cl)c2)c1-c1cc(C)on1
14	8	-13%	2.8%	-13%	Cc1ccc(NC(=O)C(=O)NCc2ccc(/C=C(/C#N)C(=O)NCc3cccnc3)o2)cc1C
15	1	-22%	0.4%	-28%	Cc1ccc(NC(=O)CN2CCc3ccccc3C2)cc1F
16	·	14%	-0.7%	·	CN(C(=O)c1cccc(NC(=O)Cc2ccc(NC(=O)C3CCCN(C(=O)C4CCC4)C3)cc2)c1)C1CCCCC1 (stereo unspecified)
17	·	?	-1.3%	-9%	CCOC(=O)Nc1ccc2c(CN(C)Cc3ccc(F)cc3)cc(=O)oc2c1
18	6	0%	?	3%	Cc1cccc(NC(=O)COC(=O)c2ccc3c(=O)n4c(nc3c2)CCC4)c1
19	·	8%	-0.6%	·	Cc1cn([C@H]2C[C@H](O)[C@@H](CCC(=O)NCCc3c[nH]c4ccccc34)O2)c(=O)[nH]c1=O
20	·	8%	-0.1%	12%	O=C(CCC(=O)N1CCOc2ccc(Cl)cc21)NCCCN1CCC(Cc2ccccc2)CC1
21	3	?	13%	2%	O=S1(=O)CCC(NCC2CCCO2)C1 (stereo unspecified)
22	6	2%	-0.5%	-1%	O=C(N/N=C/c1cccnc1)c1ccc(S(=O)(=O)N2CCCCCC2)cc1
23	?	0%	-2.2%	4%	COc1cccc(NC(=O)Nc2ccc(Cc3ccncc3)cc2)c1
24	·	0%	5.3%	0%	COc1ccc(CNC(=O)CSc2nnc3c(n2)[nH]c2ccccc23)cc1
25	·	8%	5.0%	·	COc1ccc(CC(=O)Oc2ccc(Cl)cc2Br)cc1S(=O)(=O)N1CCOCC1
26	·	-18%	?	·	C[C@@H]1ON(C)[C@H]2C[C@H]3c4cc(N5CCN(C)CC5)ccc4CCN3C(=O)[C@@H]12
27	2	-4%	3.0%	-2%	COc1ccc(OC)c(-n2nnnc2SCC(=O)N2CCN(C(=O)c3ccco3)CC2)c1
28	6	11%	-2.5%	-7%	O=C(CC1OC(=O)c2ccccc21)NC1CCCCC1 (stereo unspecified)
29	4	13%	6.6%	-3%	Cc1occc1C(=O)NNC(=S)NCC(C)C
30	·	3%	-1.7%	·	Cc1ccc(Cl)cc1NC(=O)COC(=O)CCN1C(=O)C2CC=CCC2C1=O (stereo unspecified)
31	4	-2%	6.2%	-4%	CC(C)=CCN1CCN(Cc2cn[nH]c2C2CCCCC2)CC1CCO (stereo unspecified)
32	8	-13%	?	3%	O=C(c1ccccc1)N1CCCOC1c1ccccc1 (stereo unspecified)
33	5	22%	0.0%	0%	COc1cccc(C2C(C(N)=O)=C(C)Nc3nc(CCCO)nn32)c1OC (stereo unspecified)
34	·	15%	?	-10%	COc1cccc(/C=N/n2c(COc3ccccc3)n[nH]c2=S)c1
35	6	-14%	0.8%	2%	Cc1ccc(C2=NNC(=O)C(c3ccc(Cl)cc3)C2)cc1 (stereo unspecified)
36	·	2%	-0.8%	-13%	Cc1ccc(C(=O)N2CCCC(CCC(=O)NCc3ccccc3F)C2)cn1 (stereo unspecified)
37	-26	-22%	0.8%	-8%	CC[n+]1c(/C=C2\C=C(C)CC(C)C2)sc2ccccc21 (stereo unspecified)
38	1	5%	1.4%	-12%	Cc1ccc(-n2c(Cn3nc(C(F)(F)F)cc3C)n[nH]c2=S)cc1
39	·	-5%	0.1%	·	COc1ccccc1-c1sc2cc3c(cc2c1C#CCO)OCO3
40	-18	22%	-0.3%	-5%	CCN(CC)S(=O)(=O)c1cccc(NC(=O)COc2ccc(Cl)cc2Br)c1
41	·	19%	9.2%	-11%	COc1cccc2cc(C(=O)NCCN3CCOCC3)oc12
42	·	2%	0.1%	-2%	CCOc1ccc(NC(=O)CN(C)C(=O)c2ccc3c(c2)C(=O)N(CCC(C)C)C3=O)cc1OCC
43	·	7%	3.5%	1%	CC(C)CCN1C(=O)c2ccc(C(=O)Nc3ccc(Br)cc3C(=O)O)cc2C1=O
44	·	15%	-1.0%	·	O=C(Nc1ccc(Nc2ccccc2)cc1)c1c(Cl)cccc1Cl
45	·	-18%	-3.4%	-2%	Cc1ccc(C)c(S(=O)(=O)N2CCCOC2CNC(=O)C(=O)NC2CCCCC2)c1 (stereo unspecified)

Another view of some results above.
Value order – GLA inh pH 4.5 | Rango release inh | Rango-impB inh | miR-21 FLuc
30: Cc1ccc(Cl)cc1NC(=O)COC(=O)CCN1C(=O)C2CC=CCC2C1=O (stereo unspecified)
  · | 3% | -1.7% | ·
31: CC(C)=CCN1CCN(Cc2cn[nH]c2C2CCCCC2)CC1CCO (stereo unspecified)
  4 | -2% | 6.2% | -4%
32: O=C(c1ccccc1)N1CCCOC1c1ccccc1 (stereo unspecified)
  8 | -13% | ? | 3%
33: COc1cccc(C2C(C(N)=O)=C(C)Nc3nc(CCCO)nn32)c1OC (stereo unspecified)
  5 | 22% | 0.0% | 0%
34: COc1cccc(/C=N/n2c(COc3ccccc3)n[nH]c2=S)c1
  · | 15% | ? | -10%
35: Cc1ccc(C2=NNC(=O)C(c3ccc(Cl)cc3)C2)cc1 (stereo unspecified)
  6 | -14% | 0.8% | 2%
36: Cc1ccc(C(=O)N2CCCC(CCC(=O)NCc3ccccc3F)C2)cn1 (stereo unspecified)
  · | 2% | -0.8% | -13%
37: CC[n+]1c(/C=C2\C=C(C)CC(C)C2)sc2ccccc21 (stereo unspecified)
  -26 | -22% | 0.8% | -8%
38: Cc1ccc(-n2c(Cn3nc(C(F)(F)F)cc3C)n[nH]c2=S)cc1
  1 | 5% | 1.4% | -12%
39: COc1ccccc1-c1sc2cc3c(cc2c1C#CCO)OCO3
  · | -5% | 0.1% | ·
40: CCN(CC)S(=O)(=O)c1cccc(NC(=O)COc2ccc(Cl)cc2Br)c1
  -18 | 22% | -0.3% | -5%
41: COc1cccc2cc(C(=O)NCCN3CCOCC3)oc12
  · | 19% | 9.2% | -11%
42: CCOc1ccc(NC(=O)CN(C)C(=O)c2ccc3c(c2)C(=O)N(CCC(C)C)C3=O)cc1OCC
  · | 2% | 0.1% | -2%

(next part)
cpd	GLA inh pH 4.5	Rango release inh	Rango-impB inh	miR-21 FLuc	Structure
46	·	?	-0.9%	·	O=C(NCCC1CCCCN1S(=O)(=O)c1ccc(Cl)cc1)C(=O)NCCN1CCOCC1 (stereo unspecified)
47	-2	20%	-1.7%	-12%	O=C(c1cc2c(=O)oc3ccccc3c2s1)N1CCOCC1
48	-4	?	?	0%	NC(=O)c1sc2nc3c(c(-c4ccc(Cl)cc4)c2c1N)CCCC3
49	3	1%	-1.8%	-5%	CNC(=O)CCC(=O)Nc1ccc(C(=O)OC)cc1
50	·	14%	6.5%	-18%	c1ccc(SCCCCN2CCOCC2)cc1
51	-5	6%	0.0%	15%	Cc1cnc(NC(=O)CN2CCN(c3ccccn3)CC2)s1
52	2	5%	2.1%	20%	COC(=O)C(NC(C)=O)(Nc1nc2c(C)cc(C)cc2s1)C(F)(F)F (stereo unspecified)
53	·	8%	-1.8%	22%	COc1cc(/C=C(/C(=O)O)c2ccc(-c3ccccc3)cc2)cc(OC)c1OC
54	·	-1%	-0.2%	-6%	COc1cc(-c2cc(C(=O)Nc3cccc(S(=O)(=O)N(C)C)c3)c3ccccc3n2)cc(OC)c1OC
55	1	11%	4.3%	-45%	CN(C)c1cccc(C(=O)NNC(=S)NC2CCCC2)c1
56	-1	-9%	0.7%	-15%	CCNC(=S)NNC(=O)c1csc2c1CCCC2
57	2	28%	-4.1%	-15%	CCCC(=Nc1ccccc1OC)C1=C(O)CC(c2ccccc2)CC1=O (stereo unspecified)
58	·	21%	-0.8%	-4%	Cc1ccc(S(=O)(=O)NCCn2nc(C)cc2C)cc1
59	·	-1%	-0.7%	·	O=C(CCc1ccccc1)NC1CCS(=O)(=O)C1 (stereo unspecified)
60	1	-22%	4.1%	-44%	N#CCn1c(C2CCCCC2)nc2ccccc2c1=O
61	-8	?	?	0%	Oc1ccc(C2C=C(c3ccc(F)cc3)Nc3ncnn32)cc1 (stereo unspecified)
62	·	-7%	-0.8%	0%	COc1cccc(C(=O)NCC(=O)N/N=C(\C)Cc2ccccc2)c1
63	5	14%	4.7%	-51%	Cc1ccc2oc(-c3ccc(NC(=O)CC(C)C)cc3)nc2c1
64	-1	1%	2.2%	2%	Cc1ccc(N2C(=O)C3CCC(C)(C2=O)C3(C)C)cc1 (stereo unspecified)
65	·	-11%	?	-3%	COCC(=O)Nc1cccc(-c2ccc3nncn3n2)c1
66	1	1%	2.5%	-4%	COC(=O)c1sccc1NC(=O)CN(C)NS(=O)(=O)c1ccc(Cl)cc1
67	15	0%	-1.7%	-7%	O=C(Cn1[nH]c(=O)c2ccccc2c1=O)Nc1cccc(-c2nnc3n2CCCCC3)c1
68	-1	-5%	1.2%	-6%	N#CC(C#SN)=C1CCCCC1
69	·	-17%	-1.3%	-6%	CCN(c1ccccc1)S(=O)(=O)c1ccc(C(=O)Nc2ncccc2O)cc1
70	-2	22%	-0.2%	-3%	Cc1ccc(S(=O)(=O)CC(=O)NC2CC2)cc1
71	-12	?	-1.4%	5%	CCOc1[nH]n(-c2ccccc2)c(=O)c1C=Nc1ccc(OC)cc1
72	-6	10%	1.3%	-5%	CC1(C)Cc2noc(N)c2C(C)(C)N1OC(=O)c1scc2c1OCCO2
73	3	-7%	0.3%	-1%	O=C(O)c1cc(N2C(=O)CCC2=O)ccc1NCc1cccnc1
74	·	-5%	-2.0%	0%	COC(CNC(=O)CCCn1nnnc1CN1CCOCC1)c1cccs1 (stereo unspecified)
75	0	0%	0.9%	-10%	O=C(NCc1cccnc1)c1cccc(C(F)(F)F)c1
76	11	1%	0.0%	1%	O=C(OCc1ccc([N+](=O)[O-])cc1)c1ccc2ccccc2n1
77	1	0%	-0.3%	7%	CCCC(=O)Nc1nc(-c2ccc3c(c2)CCN3S(C)(=O)=O)cs1
78	·	17%	-0.9%	-4%	O=C(Nc1cccc(-c2cccc(F)c2)c1)C1CCN(C2CCOCC2)CC1
79	0	8%	-6.4%	-17%	CN(C)/C=C1/N=C(c2ccccc2)OC1=O
80	-1	-3%	-2.6%	-2%	CCSC1=C(C#N)C(c2ccccc2OC)CC(=O)N1 (stereo unspecified)
81	0	-2%	1.4%	-1%	CN1CCN(C2=C(Cl)C(=O)N(c3cccc(Cl)c3)C2=O)CC1
82	·	-4%	0.6%	-41%	C/C(=N\NC(=O)c1c(Cl)cnn1C)c1cccnc1

Source: PubChem
